Screens as filed in PubChem BioAssay.
Cruzain Triton – blocks cruzain activity in presence of Triton detergent | 0.43% of 200,000 active | purified cruzain, Z-FR-AMC fluorescence, 0.01% Triton | Potency, µM, without a hit: max response, negative = inhibition, most hits filed as inhibitors | AID 1478;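 also: plate controls were neutral wells for no effect and buffer without enzyme for full effect; nearly all actives have a fitted effect of over 40% in size; top concentration of the series not given in the record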
Target sequence (P25779 123-467 limits assumed): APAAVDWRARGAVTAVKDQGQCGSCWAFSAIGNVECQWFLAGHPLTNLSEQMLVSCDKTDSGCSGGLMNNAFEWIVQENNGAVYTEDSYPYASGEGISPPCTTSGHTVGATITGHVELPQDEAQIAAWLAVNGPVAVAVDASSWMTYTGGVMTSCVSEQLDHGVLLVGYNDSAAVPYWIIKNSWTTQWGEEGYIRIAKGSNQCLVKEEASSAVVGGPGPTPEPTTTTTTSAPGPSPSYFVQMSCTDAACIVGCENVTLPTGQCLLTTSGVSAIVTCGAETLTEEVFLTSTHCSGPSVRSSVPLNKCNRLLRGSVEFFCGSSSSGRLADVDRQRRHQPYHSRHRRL
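15 min RT preincubation of 1.5 nM cruzain with compound, then 2 uM Z-FR-AMC added; kinetic AMC fluorescence, 60 s delta. Triton X-100 0.01%, pH 5.5.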
StopGo reporter – lowers the luciferase signal of an FMDV 2A StopGo reporter; Potency, µM (top dose mostly 57.9 µM), inactives show at the highest dose signal change, negative = less light; human cells with a luciferase reporter of 2A StopGo recoding; control for the full effect not named in the record; AID 1159524; 1.2% of 410,000 active; active = well fitted falling curve with a large enough effect; inconclusive = small, poorly fitted or top-dose-only effect; inactive = no such curve, though single readings can be large or run the other way; tested in HEK293T cells; also: % is scaled to controls: 0 for no effect and ±100 for the full control effect; nearly all actives have a fitted effect of over 45% in size; luciferase light after 4 h
Marburg entry inh – blocks Marburg virus binding to or entry into cells. Marburg virus pseudotyped entry inhibition, cell reporter; control for the full effect not named in the record; about a third of the inactives were read at about 46 µM. Potency, µM (top dose mostly 37.8 µM), for inactives: at the highest dose activity change, negative = inhibition, usual class: inhibitors. 1.8% of 300,000 active; active = well fitted inhibition curve with a large enough effect; inconclusive = small, poorly fitted or top-dose-only effect, or effect the other way; inactive = flat fitted curve, though single readings scatter; tested in HEK293 cells; about a fifth of its hits are not listed in these tables; also: % is scaled to controls: 0 for no effect and ±100 for the full control effect; luciferase read-out
Cruzain inh noDet – inhibitors of Trypanosoma cruzi cruzain without detergent. P25779. purified cruzain, Z-FR-AMC fluorescence, no detergent. Potency, µM, inactives show max response, negative = inhibition, actives largely listed as inhibitors. 2.3% of 200,000 active;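 also: plate controls were enzyme without inhibitor for no effect and buffer without enzyme for full effect; nearly all actives have a fitted effect of over 40% in size; top concentration of the series not given in the record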
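Purified cruzain at 1.5 nM, pre-incubated 15 min with compound at room temperature in 100 mM sodium acetate pH 5.5, 5 mM DTT, 0.00005% Triton X-100. Reaction started with 2 uM Z-FR-AMC; AMC fluorescence increase over 60 s gives rate.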
LASV entry inh – blocks Lassa virus binding to or entry into cells; Potency, µM (titrated, usually from 37.9 µM), without a hit: at the top dose activity change, negative = inhibition, actives largely listed as inhibitors; 1.2% of 300,000 active; Lassa virus pseudotype entry inhibition, cell reporter; control for the full effect not named in the record; AID 540256; active means well fitted inhibition curve with a large enough effect; inconclusive means small, poorly fitted or top-dose-only effect, or effect the other way; inactive means flat fitted curve, though single readings scatter; tested in HEK293 cells; also: % is scaled to controls: 0 for no effect and ±100 for the full control effect; nearly all actives have a fitted effect of over 50% in size; luciferase read-out
NS1 function inh – inhibitors of influenza NS1 protein function. S. cerevisiae slowed by influenza A NS1, growth recovery by OD600. Potency, µM (titrated, usually from 46.1 µM), for the others: at the top dose activity, positive = more growth. 0.4% of 270,000 active; active means well fitted rising curve with a large enough effect; inconclusive means small, poorly fitted or top-dose-only effect; inactive means no such curve, though single readings can be large or run the other way; also: nearly all actives have a fitted effect of over 50% in size
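Growth recovery, yeast-based: influenza A NS1 expressed in S. cerevisiae causes slow growth, and suppressors are detected by OD600. The parent strain without NS1 is used as positive control.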
RE007 growth inh – less growth of the S. pombe RE007 Vpr strain; Potency, µM (series often up to 92.2 µM), inactives show at the top dose activity change, negative = less growth; 0.21% of 360,000 active; AID 651644; S. pombe RE007 Vpr strain, BacTiter-Glo ATP luminescence, 24 h; control for the full effect not named in the record; active = well fitted falling curve with a large enough effect; inconclusive = small, poorly fitted or top-dose-only effect; inactive = no such curve, though single readings can be large or run the other way;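 also: % is scaled to controls: 0 for no effect and ±100 for the full control effect; nearly all actives have a fitted effect of over 50% in size; the assay follows cell death caused by Vpr and the record does not say whether a fall means rescue or toxicity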
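Fission yeast strain RE007, carrying one chromosomally integrated HIV-1 vpr copy, was seeded at OD 0.01 in PMG+AL medium with 23 nL pinned compound. After 24 h at 30 °C and 99% humidity, viability was read by BacTiter-Glo luminescence.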
SARS PLpro yeast – blocks SARS-CoV papain-like protease in a yeast assay. S. cerevisiae expressing SARS-CoV PLpro, growth rescue; control for the full effect not named in the record. Potency, µM (titrated, usually from 32.9 µM), without a hit: at the top dose activity, positive = growth rescue. AID 485353. 0.19% of 330,000 active; active means well fitted rising curve with a large enough effect; inconclusive means small, poorly fitted or top-dose-only effect; inactive means no such curve, though single readings can be large or run the other way; also: 0% is about no effect; nearly all actives have a fitted effect of over 55% in size; growth read by luminescence after 48 h
* marks the source's active call; other numbers are inactive results; ? = inconclusive; · = not tested or not shown; & = joins results of further samples; ! = repeats disagree; [ ] = another dose, or the depositor's remark. Unless noted, calls follow the shape of the dose curve; as a rule, active = well fitted curve in the direction sought with a large enough effect; inconclusive = small, poorly fitted or top-dose-only effect, or another doubt; inactive = no such curve, though single readings can be large; an effect the other way counts as inactive or inconclusive. Potency is read from the fitted curve at half-maximal effect.

SMILES | Cruzain Triton | StopGo reporter | Marburg entry inh | Cruzain inh noDet | LASV entry inh | NS1 function inh | RE007 growth inh | SARS PLpro yeast
CC(=O)Nc1ccc(NC(=O)c2c(C)nn(-c3ccccc3)c2-n2cccc2)cc1 | -10.7% | -20.5% | -22.3%[46.1 µM] | ? | -26.0%[46.1 µM] | · | · | ·
CCN(C(=O)c1oc2ccc(S(=O)(=O)N3CCCCCC3)cc2c1C)c1ccccc1 | -0.2% | 0.0% | · | -1.3% | ? | · | · | ·
Cc1nc2ncnn2c(C)c1CCC(=O)NC(C)CCc1ccco1 (stereo not drawn) | 1.1% | -7.4% | 5.6% | 0.0% | 4.9% | ? | 1.4%[3.69 µM] | -7.0%
O=C(CCCNC(=O)c1ccc(Cl)cc1)NCc1ccccc1Cl | · | -22.9% | · | · | · | -1.7% | -0.9% | 2.3%
Cc1nnc(NC(=O)c2cccn(Cc3ccc(Cl)cc3)c2=O)s1 | 0.1% | ? | · | 6.3% | 22.6%[46.1 µM] | · | · | ·
CCN(CC(=O)Nc1ccc(NC(C)=O)cc1)C(=O)/C=C/c1ccc([N+](=O)[O-])cc1 | · | 7.2% | -2.0% | · | 2.5% | · | 8.2% | -1.3%
Cc1ccc(-c2csc(NC(=O)COc3ccc(N(C)S(=O)(=O)c4ccc(C)cc4)cc3)n2)cc1 | 0.9% | -27.6% | ? | 6.31µM* | -2.6% | 13.8% | -0.6% | -4.0%
O=C1NC(=S)N(C2CC2)C(=O)/C1=C/c1ccc2c(c1)CCN2CCCCl | -6.9% | -16.7% | 8.7% | 3.8% | ? | -4.5% | -10.7% | -18.9%
O=C(NCc1ccc2c(c1)OCO2)C1CCC(CNS(=O)(=O)c2cccc3nsnc23)CC1 (stereo not drawn) | -2.7% | -23.2% | · | -27.8% | · | 0.3% | -5.1% | -4.0%
C=CCc1ccccc1OCC(O)CN1CCN(c2ccc(OC)cc2)CC1 (stereo not drawn) | 1.0% | -24.3% | -22.5% | -5.9% | -4.8% | -9.7% | -6.4% | ?
Cc1ccc(C)c(N2CCN(C(=O)CN3C(=O)COc4ccc(S(=O)(=O)N5CCOCC5)cc43)CC2)c1 | -0.3% | -24.8% | 3.6%[46.1 µM] | ? | 6.6%[46.1 µM] | · | · | ·
COc1cc(Nc2ccc(S(=O)(=O)N3CCN(C)CC3)cc2[N+](=O)[O-])cc(OC)c1 | · | -19.1% | -29.5%[46.1 µM] | · | -4.4% | · | -5.6% | 3.0%
COc1ccc(S(=O)(=O)Nc2ccccc2C(F)(F)F)cc1 | -5.6% | 7.7% | -9.3% | -3.9% | 7.7% | -14.6% | 0.8% | -7.1%
CCCCCCSc1nc2c(c(=O)[nH]c(=O)n2C)n1C | -5.9% | -19.1% | · | 10.2% | · | -3.7% | -6.4% | -7.5%
COc1cccc(-c2cc(C(F)(F)F)n3nc(C(=O)Nc4c(C)n(C)n(-c5ccccc5)c4=O)cc3n2)c1 | · | -18.0% | · | · | -3.9% | -2.4% | 4.5% | -0.3%
COc1cc(NC(=O)CCCn2c(=O)oc3ccccc32)cc(OC)c1 | · | 17.0% | -13.9%[46.1 µM] | · | -13.6%[46.1 µM] | · | 8.1% | -26.5%
CN(C)CCCN(C(=O)c1ccc2c(c1)CCCC2)c1nc2ccc(Cl)cc2s1 | -22.6% | 28.2µM* | ? | -10.0% | ? | -13.0% | -1.1% | -35.8%
CCOC(=O)c1ccc(NC(=O)c2nc[nH]c2C(=O)N[C@@H](CCCCNC(=O)OC(C)(C)C)C(=O)OC(C)(C)C)cc1 | · | -20.2% | · | · | · | 17.6% | 5.3% | 0.2%
N#CCCN(C(=O)Nc1ccc(Cl)cc1)c1ccccc1 | 4.0% | -5.8% | -19.6% | -12.5% | -5.0% | -6.0% | 0.0% | -3.5%
COc1ccc(NC(=O)c2cc3n(n2)C(C(F)(F)F)CC(c2ccco2)N3)cc1 (stereo not drawn) | 0.4% | ? | ? | -1.3% | 6.0% | -5.5% | 21.2% | 4.7%
Cc1sc2ncnc(SC(C)C#N)c2c1C (stereo not drawn) | -6.2% | · | 7.6% | -7.8% | 10.9% | -0.5% | -7.4% | -2.6%
Cc1ccccc1N1CC(C(=O)Nc2nnc(SCc3ccccn3)s2)CC1=O (stereo not drawn) | · | -20.3% | · | · | · | 3.4% | -13.8% | 2.5%
CCOC(=O)C1=C(C)N(C)C(=S)NC1c1c(OCC)ccc2ccccc12 (stereo not drawn) | · | -15.8% | -6.9%[46.1 µM] | · | -0.3% | -31.0% | -18.8% | -0.3%
CCCCN=C1SC(C(=O)Nc2sc3c(c2C(=O)OC)CCC3)C(N)=C1C(=O)N1CCOCC1 (stereo not drawn) | · | 48.3%[activator] | -1.8%[46.1 µM] | · | ? | · | 15.6% | ·
O=C(CCc1nnc(CCCCc2ccccc2)o1)NCCN1CCCCC1=O | · | 2.6% | 10.5%[46.1 µM] | · | -7.8%[46.1 µM] | 3.2% | 12.4% | 1.0%
SMILES | Cruzain Triton | StopGo reporter | Marburg entry inh | Cruzain inh noDet | LASV entry inh | NS1 function inh | RE007 growth inh | SARS PLpro yeast
COc1ccc(N2CCN(C(=O)C3CCCN(S(=O)(=O)c4ccc(C)cc4)C3)CC2)cc1 (stereo not drawn) | · | ? | -27.5%[46.1 µM] | · | · | -0.2% | -9.9% | 1.0%
CCOc1ccccc1N(CC(=O)Nc1ccc(S(=O)(=O)N2CCCC2)cc1)S(C)(=O)=O | · | 4.4% | · | · | · | 1.7% | 1.4% | 4.7%
CCC1Sc2ccc(S(=O)(=O)CCC(=O)Nc3cc(C)ccn3)cc2NC1=O (stereo not drawn) | · | -1.5% | · | · | · | -0.1% | -2.3% | 7.6%
NC(=O)C(c1ccc(Br)cc1)c1ccc(C(=O)c2ccccc2)cc1 (stereo not drawn) | · | -20.9% | ? | · | ? | -2.3% | 11.6% | -2.4%
O=C1COc2ccc(C(=O)COC(=O)CCSc3ccc(Cl)cc3)cc2N1 | · | -9.7% | -0.3%[46.1 µM] | · | ? | -0.1% | 1.3% | -1.9%
CCOC(=O)c1ccc(NC(=O)c2c(NCc3cccc(OC)c3OC)sc3c2CCC3)cc1 | -5.1% | -4.7% | · | -16.7% | -1.6%[46.1 µM] | · | · | ·
Cc1cccc(C)c1NC(=S)NC(C)CCc1ccccc1 (stereo not drawn) | -5.4% | 8.6% | ? | 3.0% | ? | 3.2% | 4.5% | -18.5%
CC(C)N(C(C)C)S(=O)(=O)c1ccc(NN)nc1 | · | -4.7% | -2.7% | · | · | 7.4% | 1.8% | 0.8%
COc1ccc(CCNC(=O)c2ccc(N3CCCCS3(=O)=O)cc2)cc1OC | · | -18.1% | · | · | · | 0.8% | -5.2% | -1.5%
CC1=Nn2c(nnc2-c2n[nH]c3c2CCC3)SC1 | 3.3% | -2.8% | 3.3%[46.1 µM] | 6.9% | -6.8% | -14.7% | -10.9% | 0.5%
Cc1ccc2c(c1)C(N1CCN(C)CC1)=Nc1cccnc1N2 | 3.7% | · | 11.2µM*! | -7.2% | 8.3% | ? | · | ·
CCOC(=O)C1CCN(c2c(NCCCN3CCN(Cc4ccccc4)CC3)c(=O)c2=O)CC1 | -0.4% | -0.1% | -1.2%&-1.7% | -2.6% | -29.9%[14.3 µM] | 4.6% | -12.2% | 5.2%
COc1cc(CC(NC(C)=O)C(=O)NC2CCN(c3nc(OC)nc(OC)n3)CC2)cc(OC)c1 (stereo not drawn) | · | -5.9% | 4.5% | · | -5.8% | -3.5% | -5.4% | 0.9%
COc1cc(CC(=O)N2CCc3ccccc32)cc(OC)c1OC | 3.5% | ? | -10.1% | 12.5% | -33.5% | -46.7% | -9.1% | -1.4%
COC(=O)c1c(Cc2ccccc2Cl)c[nH]c1C | -3.6% | -18.0% | ? | 0.5% | -0.3% | -26.6% | 2.5% | -16.8%
COc1cc(/C=N/NC(=O)c2sc3ccccc3c2Cl)ccc1OC(=O)c1ccc([N+](=O)[O-])cc1 | · | 12.4% | · | · | · | ? | -3.2% | 0.2%
O=C(NNC(=O)C1CC(c2cccnc2)=NO1)Nc1cccc(F)c1 (stereo not drawn) | 0.4% | 6.6% | 6.3% | -4.6% | 16.9% | -2.5% | -7.7% | 5.8%
C/C(CC(=O)NC1C2CC3CC(C2)CC1C3)=N\NC(=O)Cc1cccs1 (stereo not drawn) | -0.3% | -7.0% | -5.1% | 3.2% | 10.9% | 4.1% | 10.7% | 2.3%
O=C(NCc1cccnc1)c1nn(-c2ccccc2F)nc1CO | 3.0% | -5.5% | 11.8%[46.1 µM] | -5.4% | 4.2%[46.1 µM] | · | · | ·
CC(=O)c1c(C)n([O-])c2cc(F)c(F)cc2[n+]1=O | · | -25.4% | ? | · | ? | · | 2.6% | 1.1%
Cc1cccc(-n2cnc3c(c2=O)c2nc4ccccc4nc2n3Cc2ccco2)c1 | -14.3% | -16.6% | ? | ? | -1.8% | 13.5% | -8.8% | -4.0%
COc1ccc(CNC(=O)CN(C(=O)c2csnn2)c2ccc(C(C)=O)cc2)cc1 | · | 70.5%[activator] | ? | · | 26.5% | -1.1% | 21.8% | -0.2%
O=C1CCCc2c1cc(-c1ccccc1)n2-c1ccccc1 | -1.5% | ? | ? | -1.2% | ? | -2.3% | -6.2% | -8.0%
CCCCNc1cc(C)nc(NCc2ccccc2)n1 | 3.7% | ? | 11.2µM* | 4.5% | 11.2µM* | -143.7% | 5.6% | -11.9%
CC(C)CC(=O)Nc1ccc(C(=O)NNC(=S)NC(=O)C2CCCCC2)cc1 | -2.4% | · | ? | -23.3% | -38.5% | -0.1% | 1.7% | 4.2%
COc1ccc(C(=O)/C=C2\NCC3c4ccccc4CCN3C2=O)cc1 (stereo not drawn) | 1.5% | -12.6% | ? | 1.3% | -10.1% | -9.7% | -4.8% | 12.2%
CCOC(=O)N1CCC(NC(=O)c2ccc3c(c2)N(Cc2ccccc2C)C(=O)c2ccccc2S3=O)CC1 (stereo not drawn) | 0.5% | -17.5% | -24.9%[46.1 µM] | ? | 1.8%[46.1 µM] | · | · | ·
